# H5N1 CPE = MDCK cell protection from H5N1 avian flu; cytopathic effect, luminescence, 72 h; active compounds read high; no value below 0 was filed and about half of the inactive calls have no number; reference of the scale not given here; inhibition, % at 50 µM; 96,000 tested, 0.07% active; in the data active means inhibition above about 25%
# * = called active by the depositor; i = inactive.
# The opening 19 entries, to show the layout:
SMILES,H5N1 CPE
CCCCSc1nc(O)c(C2OC(=O)c3c2ccc(OC)c3OC)c(=O)n1-c1ccccc1 (configuration not stated),i
O=C(CN1C(=O)C2C3C=CC(C3)C2C1=O)N1CC=C(c2ccccc2)CC1 (configuration not stated),0.5
Cc1c(N(C)C(=O)c2ccco2)c(=O)n(-c2ccccc2)n1C,i
COC(=O)c1c(NC(=O)c2nn(C)cc2Cl)sc2c1CCCC2,i
Cc1ccc(NC(=O)Nc2cccs2)c(Cl)c1,0.1
N=c1cc(C2(O)CCCCC2)n2c(nc3ccccc32)s1,i
COc1ccc(N(CC(=O)Nc2cc(C)ccc2C)S(=O)(=O)c2c(C)nn(C)c2C)cc1,0.1
CC(=O)N1c2ccccc2NC2=C(C(=O)CCC2)C1c1ccc(F)cc1 (configuration not stated),i
COC(=O)Oc1cncc(C(=O)O)c1,i
CC1=C(C(=O)Nc2ccccc2)C(c2cccnc2)n2nc(-c3cccnc3)nc2N1 (configuration not stated),0.2
O=S(=O)(c1ccccc1)N1CCSC1c1ccco1 (configuration not stated),1.5
Cc1ccc(OC(=O)CCC(=O)N2CCc3ccccc32)cc1,0.6
COc1cc(SC)ccc1C(=O)NCc1ccc(C)cc1,0.2
O=C1CNC(=O)/C1=C/c1ccc(O)cc1,0.7
O=C(CSc1ncc(-c2ccccc2)n1CC1CCCO1)N1CCCCC1 (configuration not stated),0.3
COc1cc(Cl)c(S(=O)(=O)N2CCOCC2)cc1Cl,i
COc1ccc(C2=Nn3c(nnc3-c3ccc(OC)cc3)SC2)cc1,1.5
C=CCn1c2ccccc2c2nnc(SC(CC)C(=O)Nc3sc4c(c3C#N)CCCC4)nc21 (configuration not stated),1.5
O=S(=O)(/C=C/c1ccccc1)Nc1ccc(N2CCOCC2)cc1,1.3

# Main list (from the top)
SMILES,H5N1 CPE
CCCCSc1nc(O)c(C2OC(=O)c3c2ccc(OC)c3OC)c(=O)n1-c1ccccc1 (configuration not stated),i
O=C(CN1C(=O)C2C3C=CC(C3)C2C1=O)N1CC=C(c2ccccc2)CC1 (configuration not stated),0.5
Cc1c(N(C)C(=O)c2ccco2)c(=O)n(-c2ccccc2)n1C,i
COC(=O)c1c(NC(=O)c2nn(C)cc2Cl)sc2c1CCCC2,i
Cc1ccc(NC(=O)Nc2cccs2)c(Cl)c1,0.1
N=c1cc(C2(O)CCCCC2)n2c(nc3ccccc32)s1,i
COc1ccc(N(CC(=O)Nc2cc(C)ccc2C)S(=O)(=O)c2c(C)nn(C)c2C)cc1,0.1
CC(=O)N1c2ccccc2NC2=C(C(=O)CCC2)C1c1ccc(F)cc1 (configuration not stated),i
COC(=O)Oc1cncc(C(=O)O)c1,i
CC1=C(C(=O)Nc2ccccc2)C(c2cccnc2)n2nc(-c3cccnc3)nc2N1 (configuration not stated),0.2
O=S(=O)(c1ccccc1)N1CCSC1c1ccco1 (configuration not stated),1.5
Cc1ccc(OC(=O)CCC(=O)N2CCc3ccccc32)cc1,0.6
COc1cc(SC)ccc1C(=O)NCc1ccc(C)cc1,0.2
O=C1CNC(=O)/C1=C/c1ccc(O)cc1,0.7
O=C(CSc1ncc(-c2ccccc2)n1CC1CCCO1)N1CCCCC1 (configuration not stated),0.3
COc1cc(Cl)c(S(=O)(=O)N2CCOCC2)cc1Cl,i
COc1ccc(C2=Nn3c(nnc3-c3ccc(OC)cc3)SC2)cc1,1.5
C=CCn1c2ccccc2c2nnc(SC(CC)C(=O)Nc3sc4c(c3C#N)CCCC4)nc21 (configuration not stated),1.5
O=S(=O)(/C=C/c1ccccc1)Nc1ccc(N2CCOCC2)cc1,1.3
COc1ccccc1-c1nc(-c2ccccn2)no1,i
N#Cc1c2n(cnc1=O)CCCCC2,0.9
CC1CN(c2nn3c(=O)c4ccccc4nc3c3ccccc23)CC(C)O1 (configuration not stated),2.2
COc1ccc(Cn2ccc(=O)c(Cc3c(Cl)cccc3Cl)c2C)cc1,3.8
COc1cc(OC)cc(C(=O)NN2CCCCC2)c1,i
Cc1nnc(SCCC(=O)Nc2ccc(F)cc2)s1,i
O=C(Nc1ccccn1)c1c(O)c2cccc3c2n(c1=O)CCC3,i
Cc1ncoc1C(=O)Nc1cccc(Cl)c1,i
CCN1C(=O)c2cccc3c(S(=O)(=O)Nc4ccccc4)ccc1c23,0.8
O=[N+]([O-])c1cc([N+](=O)[O-])c(N2CCCCCC2)cc1NCCO,4.6
O=C(CN1CCN(c2ccccc2)CC1)Nc1ccccc1C(F)(F)F,i
Cc1cc(C)nc(N(C#N)CN2C(=O)c3ccccc3S2(=O)=O)n1,0.1
CNc1nc(Oc2ccc(=O)n(C)n2)nc(N2CCOCC2)n1,i
CCOC(=O)c1[nH]c2ccc(F)cc2c1NC(=O)CN1CCc2cc(OC)c(OC)cc2C1,4.5
Cc1cc(C)c(NC(=O)CS(=O)CC(=O)N2CCN(c3ccccc3)CC2)c(C)c1 (configuration not stated),0.1
Cc1cc(=O)n2c3ccccc3n(CC(O)CN3CCCC3)c2c1C#N (configuration not stated),4.4
CCOC(=O)C1CCN(C(C)C(=O)c2c(C)[nH]c3cc(C)ccc23)CC1 (configuration not stated),i
COc1ccc(-c2ccc(CCC(=O)O)n2C(C)C)cc1,0.1
CO/N=C/NC(=O)C1=NOC(CNc2ncc(C(F)(F)F)cc2Cl)C1 (configuration not stated),1.1
COC(=O)c1ccc(CSc2ccccc2C)o1,0.7
CNCC(O)COc1ccccc1 (configuration not stated),1.3
CCOC(=O)C1=C(c2ccccc2)N2CCS(=O)(=O)N=C2S1,i
N#CC(C(=O)NC1CCCCC1)c1nc2ccccc2nc1N1CCN(c2ccc(F)cc2)CC1 (configuration not stated),i
COc1ccc(C)cc1-n1nnnc1SCc1cn2ccsc2n1,0.0
COCCNC(=O)COc1ccccc1Cl,1.2
O=C(NCc1ccco1)c1cc(C(=O)C2CCCCC2)c[nH]1,2.7
CCc1ccccc1NC(=O)COC(=O)C1CC(=O)N(c2ccc(F)cc2)C1 (configuration not stated),i
COc1ccccc1CNc1nc2nc(C)c(Cl)c(=O)n2[nH]1,0.2
CC(C)(C)C(=O)CSc1nc2ncc(Br)cc2[nH]1,i
Cc1nnc(SCC(=O)N2CCc3ccccc32)s1,i
Cc1n[nH]c(C)c1Cc1ccc(C(=O)O)cc1,0.1
Cn1cnnc1SCC(=O)OCN1C(=O)c2ccccc2C1=O,1.0
Cc1ccc(NC(=O)CSc2nc(O)cc(=O)n2C)cc1,0.3
O=C(CSC1=NC(=O)C(Cc2ccccc2)C(=O)N1)Nc1ncccn1 (configuration not stated),i
COc1ccccc1N1CCN(S(=O)(=O)CC23CCC(CC2=O)C3(C)C)CC1 (configuration not stated),i
c1ccc(Cc2nnc3sc(-c4ccncc4)nn23)cc1,2.4
Clc1ccsc1-c1ccc2ccccc2n1,i
COC(=O)c1ccc(C2C(Oc3ccccc3)C(=O)N2CCc2ccc(F)cc2)cc1 (configuration not stated),2.6
CN(C)C(=O)N1CCC(C(=O)NCC2CCCO2)CC1 (configuration not stated),0.6
CCN(CC)C(=O)Cc1cc(C(=O)O)c2ccccc2n1,i
CCOC(=O)c1c(C)nc2sc3c(=O)n(-c4ccc(C(C)=O)cc4)cnc3c2c1-c1ccc(OC)cc1,0.4
# Continued.
SMILES,H5N1 CPE
CCOc1cc(C(=O)N2CCN(C/C=C/c3ccccc3)CC2)cc(OCC)c1OCC,i
CC(=O)Nc1cccc(N2C(=O)CCC2=O)c1,0.2
CCOC(=O)c1cc(CNC(=O)c2c(C)oc3c2CCCC3)c(C)o1,0.3
CCCN1C(=O)c2ccccc2NC1c1ccc(OC)cc1OC (configuration not stated),0.4
Cc1cc(=O)oc2c(C(=O)/C=C/c3ccccc3)c(O)ccc12,i
NC(N)=N/N=C/c1ccc(OCc2ccccc2Cl)cc1,i
COc1ccccc1N(CC(O)CN(c1ccccc1)S(C)(=O)=O)S(=O)(=O)c1ccccc1 (configuration not stated),i
CC(=O)C(C)Oc1ccc2c3c(c(=O)oc2c1)CCCC3 (configuration not stated),1.1
O=C(CCS(=O)(=O)c1cccs1)N1CCCC1,0.1
CCCSc1nnc(-c2ccccc2NC(=O)CC)c(=O)[nH]1,i
CCn1cc([N+](=O)[O-])c(C(=O)Nc2ccc(Br)cn2)n1,i
CCCCn1c(C)cc2cc(O)ccc21,0.3
CC(C)NC(=O)Cn1cc(C(=O)c2ccccc2F)c2ccccc21,0.2
CC1Cc2nc(SCC(=O)N3CCCC3)n(C)c(=O)c2S1 (configuration not stated),2.3
CNC(=O)CSc1nnc(-c2cccnc2)n1CCc1ccccc1,0.2
C=Cn1ccnc1P(=S)(c1ccc2c(c1)c1ccccc1n2CC)c1nccn1C=C,i
CCN1C(=O)C2(C(C#N)=C(N)Oc3cc(C)oc(=O)c32)c2ccccc21 (configuration not stated),0.9
CCOCCCNC(=O)CCCn1nc(C)n2c(cc3sccc32)c1=O,1.1
CC1(C)C(=O)Nc2ccccc2N1C(=O)COc1ncnc2c(Cl)cc(Cl)cc12,i
CCOC(=O)C1CCN(C(=O)C2CCN(S(=O)(=O)c3cc(Cl)ccc3Cl)CC2)CC1,1.3
C=CCN(CC=C)C(=O)C1CC(=O)N(c2ccc(Br)cc2)C1 (configuration not stated),i
Cn1c(C(=O)NCCCN2CCc3ccccc3C2)cc2c(=O)n(C)c3ccccc3c21,i
CC(C)(C)NS(=O)(=O)c1ccc(OCC(=O)Nc2ccc3c(c2)OCCO3)cc1,i
CN(C)S(=O)(=O)c1cccc2nsnc12,i
NC(=O)NOCc1ncc(C(F)(F)F)cc1Cl,i
CC1CCCC(C)N1CC(O)COc1ccc(Cl)cc1 (configuration not stated),i
CS(=O)(=O)N(CC(=O)N1CCN(c2ccc(F)cc2)CC1)C1CCCCC1,i
CCOC(=O)C1CCN(C(=O)c2ccco2)CC1,2.3
Cn1c(Cn2c(=O)sc3ccccc32)nnc1SCC(=O)N1CCCC1,i
CC(C)C(=O)Nc1ccc2c(c1)C(=O)N(CCC(=O)O)C2=O,i
COC(=O)c1ccc(Oc2ccc(C(C)(C)C)cc2)c([N+](=O)[O-])c1,i
COc1ccc(-c2cn3cccnc3n2)cc1NC(=O)c1ccc(Br)o1,3.5
CCn1c(N)c(C(=O)NCC2CCCO2)sc1=S (configuration not stated),i
CC1=NC(C(F)(F)F)(C(F)(F)F)C2=C(CC(C)(C)CC2=O)N1Cc1ccco1,0.6
CCOc1ccc(-c2nnc(SCC(=O)Nc3ccc4c(c3)c3ccccc3n4CC)n2N)cc1,i
COc1cccc(C2C(C(=O)c3cccs3)=C(O)C(=O)N2c2cc(C)on2)c1 (configuration not stated),0.5
O=C1C=C(Nc2ccc(Cl)cc2)CC(c2ccc(Cl)cc2)C1 (configuration not stated),i
Cc1nnc(SCc2nc3ccccc3s2)n1-c1ccccc1,1.1
O=S(=O)(c1ccc(OCC(O)CNCc2ccco2)c(Cl)c1)N1CCOCC1 (configuration not stated),0.1
Cc1ccc(C(=O)NCCSc2ccc(Cl)cc2)cc1[N+](=O)[O-],1.2
COCCn1c(C)cc(C(=O)CSc2ccc3ccccc3n2)c1C,0.2
CCCCN(CCCC)CP(=O)(c1ccccc1)c1ccccc1,1.1
Cc1ccccc1NC(=O)C1CCCN(S(=O)(=O)c2c(C)noc2C)C1 (configuration not stated),i
COc1ccc(-c2nnc(SCC(=O)N3CCCCC3)o2)cc1OC,0.1
COC(=O)CSc1nnc(CNS(=O)(=O)c2ccc(C)cc2)n1C,0.8
c1ccc(-n2cnc3cc(NCc4ccccn4)ccc32)cc1,0.3
Cn1c(CCN2CCCCC2)nc2cc(NS(=O)(=O)c3ccc(Cl)cc3)ccc21,i
O=C(CSc1nc2ccccc2c(=O)n1C1CC1)NCc1ccccc1,0.3
CC(=O)n1c(Cl)c(NC(=O)CCl)c2ccccc21,12.8
O=C(CN1CCN(Cc2ccccc2F)C1=O)NCc1cccnc1,1.2
O=C1CCCN1CCCNc1ncnc2c1[nH]c1ccc(Cl)cc12,i
CCOC(=O)CCc1c(C)nc2cc(-c3ccc(F)cc3)[nH]n2c1=O,i
O=C(O)c1[nH]c2ccccc2c1-c1ccccc1,0.2
COc1ccccc1N1CCN(Cc2cccc(OC)c2O)CC1,2.5
O=C1C2C3C=CC(C3)C2C(=O)N1CNc1ccc(O)cc1 (configuration not stated),0.7
O=C(Oc1ccc2c(c1)OCO2)c1cccs1,i
CCC(Cc1ccccc1)NC(=O)CCn1cccc1 (configuration not stated),0.8
Nc1nc(-c2ccc3ccccc3c2)c(C2(O)C(=O)Nc3c(Br)cc(F)cc32)s1 (configuration not stated),i
COc1ccc(OCCSc2ncccn2)cc1,0.3
Cc1ccc(S(=O)(=O)NCC(=O)OCc2nnc(-c3ccccc3)o2)cc1C,0.1
# Continuation:
SMILES,H5N1 CPE
Cc1ccccc1OCC(=O)Nc1cccc(N(C)S(C)(=O)=O)c1,i
COc1ccc(NC(=O)CN2C3CCC2CC(O)(c2cccnc2)C3)cc1OC (configuration not stated),0.1
CCOC(=O)Cc1csc(NC(=O)CSc2nnnn2-c2ccc(F)cc2)n1,0.4
Cc1c(C)n(C)c2ccc([N+](=O)[O-])cc12,i
Cc1ccc(S(=O)(=O)CCc2nc3ccccc3s2)cc1C,0.5
COc1cccc(NC(=O)CN(C)C(=O)c2ccc3ccccc3c2)c1,1.4
CCC(C)Sc1nnc(Cc2cc(=O)[nH]c(=O)[nH]2)n1-c1ccc(OC)cc1 (configuration not stated),0.7
CCn1cc(C(=O)N2CCN(c3ccccn3)CC2)c2cc(OC)c(OC)cc2c1=O,0.2
O=C(O)CS(=O)(=O)CC(=O)O,i
Cc1ccc(/C=N/NC(=O)Cn2cnc3ccccc32)o1,i
CC/C(CC(C)(C)c1ccccc1)=N\O,2.5
O=C(CSc1nnnn1Cc1ccccc1)NCCc1ccccc1,0.8
CCCc1[nH][nH]c(=O)c1C(c1ccc(Br)cc1)C(C#N)C#N (configuration not stated),i
Cc1cccc(CC(Cc2nc3ccccc3[nH]2)c2nc3ccccc3[nH]2)c1 (configuration not stated),1.4
Cn1c(=O)c2ncn(CC(=O)Nc3cc(C(F)(F)F)ccc3N3CCOCC3)c2n(C)c1=O,1.4
CCOC(=O)CN1C(=O)C(C)(C)Oc2ccc(C(=O)Nc3ccccc3OC)cc21,i
COc1cccc(C2=CC(c3ccc(N(C)C)cc3)n3nnnc3N2)c1 (configuration not stated),0.1
CCn1c(=O)n(CC(=O)N2CCC3(CC2)OCCO3)c(=O)c2ccccc21,i
COc1ccc(C(=O)OCC2CC(c3ccccc3)N(C)O2)cc1 (configuration not stated),i

# High-throughput results (PubChem BioAssay)

# This is a subset; count on the stated rates, not on these rows.
